# Screening results: PubChem, National Center for Advancing Translational Sciences (NCATS)
# 2A StopGo – High Throughput Screening for Foot and Mouth Disease Virus Antivirals | human cells with a luciferase reporter of 2A StopGo recoding; control for the full effect not named in the record | Potency, µM (titrated, usually from 57.9 µM), for the others: at the top dose signal change, negative = less light | 1.2% of 410,000 active | AID 1159524, 2015; active = well fitted falling curve with a large enough effect; inconclusive = small, poorly fitted or top-dose-only effect; inactive = no such curve, though single readings can be large or run the other way; tested in HEK293T cells; also: nearly all actives have a fitted effect of over 45% in size; luciferase light after 4 h
# RE007 growth inh – qHTS Assay for Inhibitors of the HIV-1 protein Vpr; 0.21% of 360,000 active; S. pombe RE007 Vpr strain, BacTiter-Glo ATP luminescence, 24 h; control for the full effect not named in the record; Potency, µM (top dose mostly 92.2 µM), for the others: top-dose activity change, negative = less growth; active = well fitted falling curve with a large enough effect; inconclusive = small, poorly fitted or top-dose-only effect; inactive = no such curve, though single readings can be large or run the other way;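 also: nearly all actives have a fitted effect of over 50% in size; the assay follows cell death caused by Vpr and the record does not say whether a fall means rescue or toxicity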
#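 Fission yeast RE007 carrying one integrated HIV-1 vpr copy, seeded at OD 0.01 in PMG+AL medium with 23 nL pinned compound. Grown 24 h at 30 degrees; viability read by BacTiter-Glo luminescence after 5 min.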
# Active calls of the source: *; ? = inconclusive; [ ] = another dose, or the depositor's remark. % is scaled to controls: 0 for no effect and ±100 for the full control effect; potency is read from the fitted curve at half-maximal effect. This is a subset. The share of hits here may be higher or lower than overall.
molecule,2A StopGo,RE007 growth inh
COc1cccc(C#Cc2ccc3c(c2)O[C@H](CN(C)C)[C@@H](C)CN([C@@H](C)CO)S3(=O)=O)c1,1.6%,16.4%
CC1=C(C(=O)N(C)C)CC(CC(=O)NCc2cccs2)C(=O)N1CCC1=CCCCC1 (stereo not drawn),36.0%[activator],-7.4%
Cc1cccc(C)c1NC(=O)C1(C)CSCC(=O)N1Cc1cccc(F)c1 (stereo not drawn),-13.8%,-7.8%
COc1ccc(NC(=O)C2Cc3c(-c4cccc(C(C)=O)c4)ccnc3O2)cn1 (stereo not drawn),?,3.8%
COc1ccccc1/C=C/c1nc2ccccc2c(=O)o1,51.1%[activator],6.2%
CCOC(=O)[C@]12CCCC=C1N(Cc1ccc(Cl)cc1Cl)C(=O)[C@H](CC(=O)N1CCN(C(=O)c3ccco3)CC1)C2,-23.9%,34.7%
CC(O)(c1cccc(F)c1)c1nc(-c2ccc3ccccc3c2)cs1 (stereo not drawn),-1.4%,?
CCOc1ccccc1N1C(=O)CC(Sc2ccccc2N)C1=O (stereo not drawn),-3.0%,9.5%
Cc1cccc(C)c1NC(=O)NS(=O)(=O)c1ccccc1,-10.2%,-7.2%
CC(=O)Nc1ccc(-c2ccnc3c2CC(C(=O)NCC2CCOCC2)O3)cc1 (stereo not drawn),-1.5%,11.9%
CCOC(=O)c1c(CC(C)C)csc1NC(=O)COC(=O)c1cnc(C)cn1,5.3%,11.7%
CCCS(=O)(=O)NC(=O)C1(C)CCN(C(=O)c2snnc2C)C1 (stereo not drawn),-16.3%,-15.6%[18.4 µM]
CC(=O)c1ccc(Nc2nc(C(N)CCc3ccccc3)cs2)cc1 (stereo not drawn),-26.9%,4.7%
CCCCN1C(=O)C(CC(=O)NCCc2ccccn2)CC(C(=O)N(C)C)=C1C (stereo not drawn),44.2%[activator],3.1%
COc1ccc(NC(=O)c2cc(C3CCCCN3S(=O)(=O)c3ccc(F)cc3F)on2)c(C)c1 (stereo not drawn),?,0.9%
CC(C)(C)N1C(=O)c2ccccc2NC(=O)C1C(=O)Nc1ccc2c(c1)OCCO2 (stereo not drawn),11.6%,7.6%
CCCNC(=O)C1(C)CCCN(C(=O)c2cc(F)ccc2C)C1 (stereo not drawn),-20.5%,-13.0%
Cc1cccc(C)c1NC(=O)C(c1ccncc1)n1c(=O)c(-c2cc3ccccc3[nH]2)nc2ccccc21 (stereo not drawn),19.7%,-16.4%
CC(=O)c1cccc(NC(=O)C2Cc3c(-c4ccc(Cl)cc4)ccnc3O2)c1 (stereo not drawn),35.5µM*,-21.4%
CC1CCCCC1NC(=O)CCn1c(=S)[nH]c2ccccc2c1=O (stereo not drawn),-7.3%,-15.0%
COc1ccc(N2CSC(=S)N(c3ccc(OC)cc3)C2)cc1,4.7%,-16.0%
O=C(NCc1ccccc1)c1cccc2c(-c3cccnc3)coc12,0.7%,13.6%
CS(=O)(=O)c1ccc(C2=C(CNC(=O)c3ccc([N+](=O)[O-])cc3)[C@H]3CC[C@@H](C2)N3Cc2ccccc2)cc1,-18.1%,15.5%
CCCCCCN1CCN(C2CN(Cc3cn(CCCCCC)nn3)S(=O)(=O)C2)CC1 (stereo not drawn),-21.2%,-16.5%
CNc1cc(=O)n(C)c(=O)n1-c1ccccc1,-20.7%,1.6%
CC1(C)CC(=O)C=C(c2ccc(COC(=O)c3ccccc3)cc2)C1=O,37.2%[activator],-7.1%
CC(C)c1ccc(CC(=O)N2CCC2(C)C(=O)NS(=O)(=O)c2cccc(C#N)c2)cc1 (stereo not drawn),-13.2%,8.6%[18.4 µM]
CC(C)CN(C(=O)COc1ccccc1C(=O)NCc1ccccc1)C1CCS(=O)(=O)C1 (stereo not drawn),-12.2%,7.9%
O=C(NCc1ccc(F)cc1)c1ccc(S(=O)(=O)N2CCCC2)cc1,-5.7%,5.7%
COC(=O)[C@]12CCCCC=C1N(Cc1ccco1)C(=O)[C@H](CC(=O)N1CCCCC1)C2,-25.4%,-18.6%
COc1ccc(CC(N)c2csc(NC(=O)c3ccc(OC)cc3)n2)cc1 (stereo not drawn),-31.3%,6.4%[18.4 µM]
Cc1csc(N2CCCC2c2nc3cc(Cl)c(N4CCCCC4)cc3n2CCCO)n1 (stereo not drawn),-10.9%,-9.1%
O=C(Cc1cccc(NC(=O)C2CCCN(C(=O)c3ccccc3)C2)c1)Nc1cccc(C(=O)N2CCOCC2)c1 (stereo not drawn),-6.7%,-2.0%
N#Cc1c(NC(=O)COC(=O)C2=COCCO2)sc2c1CCCC2,1.5%,1.4%
COc1ccc(-c2cnc(C(O)c3ccc(OC)c(F)c3)[nH]2)cc1 (stereo not drawn),4.1%,-5.1%
COc1ccc([C@H]2C[C@@H](O)[C@H](n3cc(C4CC4)nn3)CN2C(=O)C2CCCCC2)cc1,-0.2%,2.8%
CCC(=O)N1CCC1(C)C(=O)Nc1ccc(Cl)c(Cl)c1 (stereo not drawn),-14.3%,-2.4%
COc1cccc(C(=O)C(CCC#N)c2ccccc2)c1 (stereo not drawn),?,-5.1%
COC(=O)c1cc(OC)c(OC)cc1NC(=O)CCN1C(=O)C2CCCCC2C1=O (stereo not drawn),0.0%,-15.9%
CC(C)N(C)c1ncnc2c1ncn2[C@H]1CN(CCc2ccccc2)C[C@@H](CO)O1,0.0%,8.3%
O=C1NC[C@H](Cc2ccc(O)cc2)N(C[C@@H]2CCCN2C[C@H](Cc2ccc(O)cc2)N2C[C@H](Cc3ccccc3)N(CCc3ccccc3)C(=O)C2=O)C1=O,1.4%,-8.6%
COc1ccc(-c2coc3c(C(=O)NCCc4ccccc4)cccc23)c(C)c1,-22.0%,12.6%
CC(=O)N1Cc2cnnn2-c2ccccc2C1(C#N)Cc1ccccc1 (stereo not drawn),-20.4%,3.7%
Nc1cc(C(=O)OCC(=O)Nc2ccc(N3CCOCC3)cc2)ccc1Cl,-12.8%,2.6%
Cc1c(C(=O)NCc2ccc3c(c2)OCCO3)sc(=O)n1Cc1ccc(C(=O)N(C)C)cc1,0.0%,2.4%[18.4 µM]
NC1=NC2OC(CO)C(O)C2O1 (stereo not drawn),-16.9%,-1.7%
CC(N)c1csc(Nc2ncccn2)n1 (stereo not drawn),-4.7%,7.6%
O=C1NC[C@H](CCCCN2CCN(CC3CCCCC3)C(=O)C2=O)N(CCC2CCCCC2)C1=O,-11.6%,4.7%
CCCCNC(=O)C(NC(=O)c1ccc(-c2ccccc2)cc1)C(=O)c1ccccc1 (stereo not drawn),22.4%,-2.0%
COc1ccc(Cl)cc1Nc1cc(C)nc2ccccc12,?,-0.2%
COC(=O)C[C@H]1C[C@H]2c3cc(NC(=O)Cc4ccncc4)ccc3O[C@H]2[C@@H](CO)O1,-22.9%,32.0%
O=S(=O)(c1cccc2ccccc12)N1CCC2CC1c1cc(Cl)ccc12 (stereo not drawn),-5.9%,-13.1%
COc1ccc(Cn2cc(CN3CC(N4CC=CC4)CS3(=O)=O)nn2)cc1 (stereo not drawn),-14.7%,1.1%
Nc1ccc(-c2cnc(N)c(C(=O)c3cccnc3)n2)cn1,0.0%,3.8%
CCOC(=O)c1ncccc1NC(=O)CC(=O)Nc1cccnc1C(=O)OCC,6.5%,5.5%
CN(C)c1cccc(CNC(=O)c2csc([C@@H]3O[C@H](CO)[C@H](O)[C@H](O)[C@H]3O)n2)c1,-12.4%,3.4%
CSc1ncnc2c1ncn2CCCNCCc1ccccn1,-7.2%,-27.3%
CCOC(=O)c1cccc(NC(=O)c2c(NCc3ccccc3)[nH]c(=O)[nH]c2=O)c1,4.0%,-12.4%
COc1ccc(-c2ccc3oc(-c4ccc(OC)cc4)c(C#CC4(O)CCCCC4)c3c2)cc1,-11.4%,5.2%
COc1ccc(CCN2C(=O)c3ccccc3C2c2nnnn2Cc2ccccc2)cc1OC (stereo not drawn),-12.4%,1.0%

# One compound at a time (already shown). Order of values: 2A StopGo, RE007 growth inh
# `COc1ccc(CCN2C(=O)c3ccccc3C2c2nnnn2Cc2ccccc2)cc1OC` (stereo not drawn) across the screens: -12.4%, 1.0%
# `CC(=O)N1Cc2cnnn2-c2ccccc2C1(C#N)Cc1ccccc1` (stereo not drawn) across the screens: -20.4%, 3.7%
# `COc1ccc(Cl)cc1Nc1cc(C)nc2ccccc12` across the screens: ?, -0.2%

# Other results.
molecule,2A StopGo,RE007 growth inh
CCCCN1CC[C@H]2C=CC[C@@H](C(=O)Nc3ccc(Cl)c(C(F)(F)F)c3)[C@H]2C1=O,-26.2%,3.7%
CCOC(=O)N1CCN(C(=O)c2[nH]c(C(F)(F)F)nc2-c2ccccc2)CC1,-7.8%,3.9%
CCCCNC(=O)C1(C)CCCCN1C(=O)c1ccc2c(c1)CCO2 (stereo not drawn),-13.9%,7.4%
O=C(Cc1ccccc1)CC(CC(=O)c1ccccc1)c1ccccc1 (stereo not drawn),-0.5%,4.6%
CCCCC1Cc2[nH]c(=S)[nH]c(=O)c2C(c2cccc3ccccc23)O1 (stereo not drawn),-24.5%,3.4%
CC(=O)Nc1cc(-c2ccccc2N(C)C)cn2c(-c3cccc(C(F)(F)F)c3)cnc12,-25.3%,-7.5%
COc1ccc(-c2cnc(C(O)c3ccccc3)[nH]2)cc1 (stereo not drawn),53.0%[activator],4.9%[18.4 µM]
C[C@H](CO)N1C[C@H](C)[C@@H](CN(C)C(=O)c2ccccc2)OCc2cnnn2CCCC1=O,-21.6%,-14.7%
Cc1ccc([C@@H]2C[C@H]3[C@@H](CN2S(=O)(=O)c2ccc(Cl)cc2)C(=O)C[C@@H](c2ccccc2)N3S(=O)(=O)c2ccc(C)cc2)cc1,-27.2%,-9.6%
O=C(Nc1nnc([C@@H]2C[C@H](O)[C@@H](CO)O2)s1)c1cccc(OC(F)(F)F)c1,8.7%,7.0%[18.4 µM]
CCCCNC(=O)C[C@@H]1C[C@@]2(C(=O)OCC)CCCC=C2N(Cc2ccccc2)C1=O,19.1%,0.0%
COCCNC(=O)c1c(CSc2ccc(Cl)cc2)noc1C(=O)NCc1ccccc1,-26.1%,3.7%
COc1ccc(NC(=O)C2(C)CCCN(C(C)C)C2)cc1F (stereo not drawn),-4.9%,8.8%
COc1ccccc1Cn1c(=S)[nH]c2cc(C(=O)N3CCCC(C)C3)ccc2c1=O (stereo not drawn),?,2.8%
O=C(Nc1ccc2c(c1)OCCO2)C1c2ccccc2OCC(=O)N1C1CC1 (stereo not drawn),-14.1%,0.0%
Oc1ccc(C[C@H]2CNC(=S)N2CC2CCCN2C[C@H](Cc2ccc(O)cc2)N2C[C@H](Cc3ccc(O)cc3)N(CC3CCCCCC3)C2=S)cc1 (stereo partly drawn),?,8.6%
COC(=O)C1N[C@@H]([C@@H](NC(=O)COc2ccccc2)C(=O)Nc2ccc(OC)cc2)SC1(C)C (stereo partly drawn),-7.2%,-0.1%
CCCCN1CCCCC1(C)C(=O)NCc1cccs1 (stereo not drawn),-14.2%,-4.6%
CN(C)c1cccc(CNC(=O)c2ccc3sc([C@H]4C[C@H](O)[C@@H](CO)O4)nc3c2)c1,-6.6%,-0.9%[18.4 µM]
O=C1C2CCCCN2C(=O)N1CCN1CCN(c2cccc(Cl)c2)CC1 (stereo not drawn),-11.2%,-3.1%
Cc1cccc(-n2ncc3c2CCCC3NC(=O)c2cccs2)c1C (stereo not drawn),?,3.0%
O=S(=O)(c1cccc(C(F)(F)F)c1)N1c2ccccc2-n2cccc2C1c1cccnc1 (stereo not drawn),?,1.3%
CC(C)C[C@@H](CNCC(=O)[C@H](C)NC(=O)c1[nH]cnc1C(=O)N[C@H](CN)CC(C)C)NC(=O)c1nc[nH]c1C(=O)N[C@@H](C)C(=O)O,-17.7%,5.9%
CC(C)COC(=O)N1CCCCC1c1cc(C(=O)Nc2ccc3c(c2)OCO3)no1 (stereo not drawn),-24.7%,2.1%
CC(C)C[C@@H](COCc1ccc(C(F)(F)F)cc1)N1CCN(C(=O)c2ccc(C(F)(F)F)cc2)CCC1=O,-29.5%,-5.5%
Cc1ccc(NC(=O)C2(C)CCN2C2Cc3ccccc3C2)cc1 (stereo not drawn),-16.4%,-12.3%[18.4 µM]
CCCC(=O)N1CCC1(C)C(=O)NS(=O)(=O)c1ccccc1 (stereo not drawn),4.4%,8.5%
COc1ccc(Cc2c(-c3ccc(F)cc3)nc3c(C)cc(Br)cn23)c(C)c1,-15.1%,-9.0%
COC(=O)c1cc2c(n(-c3ccccc3)c1=O)CCCC2=O,1.6%,8.0%
Cc1cnc2c(N)cc(C)c(C)c2c1,-23.0%,-8.0%
O=C(NCCN1CCNC1=O)c1ccc2sc([C@@H]3O[C@H](CO)[C@H](O)[C@H](O)[C@H]3O)nc2c1,-17.9%,4.7%
Cc1noc(C)c1S(=O)(=O)Nc1ccc2c(c1)C(=O)N([C@H](C)CO)C[C@H](C)[C@H](CN(C)S(=O)(=O)c1ccc(Cl)cc1)OCCCC[C@@H](C)O2,-8.8%,1.2%
